# Assay outcomes (PubChem)
# D2 agonist – activates the human D2 dopamine receptor; P14416; DiscoveRx PathHunter D2 beta-arrestin, luminescence, 90 min; 100% = 57 uM dopamine signal; 360,000 compounds, 0.084% hits; activation, % (test concentration not listed); in the data active = activation above about 40%; inconclusive = about 15% to 40%; inactive = below about 15%; further: compound concentration not given in the record; the text of the record calls up to 30% inactive
# Target sequence (P14416 whole entry, looked up): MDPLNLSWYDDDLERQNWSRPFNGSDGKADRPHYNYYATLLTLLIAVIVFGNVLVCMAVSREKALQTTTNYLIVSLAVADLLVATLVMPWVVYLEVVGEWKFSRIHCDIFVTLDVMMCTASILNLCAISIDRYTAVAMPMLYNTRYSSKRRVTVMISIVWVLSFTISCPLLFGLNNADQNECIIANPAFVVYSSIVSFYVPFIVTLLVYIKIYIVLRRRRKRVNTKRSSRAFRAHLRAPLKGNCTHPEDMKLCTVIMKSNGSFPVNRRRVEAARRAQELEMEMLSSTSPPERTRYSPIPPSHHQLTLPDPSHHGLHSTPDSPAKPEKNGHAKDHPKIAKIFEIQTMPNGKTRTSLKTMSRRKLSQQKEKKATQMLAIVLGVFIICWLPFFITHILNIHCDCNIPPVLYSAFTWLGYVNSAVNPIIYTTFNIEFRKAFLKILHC
#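 DiscoveRx PathHunter D2 beta-arrestin cells (2,100/well) attached overnight, then compound-stimulated 90 min at 37 C in HBSS/10 mM HEPES/0.1% Tween-20 buffer; beta-galactosidase complementation read by luminescence after 1 h at ambient temperature. Dopamine 57 uM final (EC100) as control.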
# TRPML1 ag – agonists of human TRPML1 channel; activation, % (test concentration not listed); Q9GZU1; TRPML1-expressing cells, Ca2+ dye fluorescence, FDSS; host cell line not named in the record; reference of the full effect not given here; 410,000 compounds, 0.12% hits; AID 624414; in the data active = activation above about 50%; inconclusive = about 30% to 50%; inactive = below about 30%; further: 0% is about no effect; the text of the record puts the active cut at 80%
# Target sequence (Q9GZU1 whole entry, looked up): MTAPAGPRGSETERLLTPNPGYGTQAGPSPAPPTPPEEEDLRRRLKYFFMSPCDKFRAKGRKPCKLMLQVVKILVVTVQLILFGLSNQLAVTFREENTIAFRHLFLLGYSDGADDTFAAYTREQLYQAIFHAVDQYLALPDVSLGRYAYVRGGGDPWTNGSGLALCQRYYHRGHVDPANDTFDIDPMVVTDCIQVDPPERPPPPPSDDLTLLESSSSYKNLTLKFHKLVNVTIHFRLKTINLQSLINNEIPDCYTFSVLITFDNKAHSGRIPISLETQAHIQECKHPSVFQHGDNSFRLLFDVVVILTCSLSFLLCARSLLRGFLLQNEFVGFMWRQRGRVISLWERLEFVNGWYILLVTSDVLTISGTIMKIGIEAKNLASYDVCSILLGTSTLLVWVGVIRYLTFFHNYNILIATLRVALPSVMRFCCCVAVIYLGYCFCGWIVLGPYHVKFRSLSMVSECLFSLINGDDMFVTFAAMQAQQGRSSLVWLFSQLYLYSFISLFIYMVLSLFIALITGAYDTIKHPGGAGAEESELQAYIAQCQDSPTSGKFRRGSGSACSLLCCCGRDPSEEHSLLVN
#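 Tetracycline-induced TRPML1-DL cells are seeded and incubated overnight before loading with a no-wash Ca2+ dye and quencher. Agonist activity is taken from the 110 s fluorescence read following compound pin-transfer on an FDSS, before EC80 54-4 challenge.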
# D2 potentiator – positive allosteric modulators of human D2 dopamine receptor. P14416. potentiation, % (concentration not given with the values). DiscoveRx D2 beta-arrestin cells, luminescence, 90 min; 100% = 57 uM dopamine signal. 360,000 compounds, 0.23% hits; active = potentiation of 50% or more; inconclusive = 30% to 50%; inactive = 30% or less;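 further: tested on top of an EC20 dose of dopamine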
#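 PathHunter beta-arrestin assay in DiscoveRx D2 cells. Compounds were added with an EC20 of dopamine (50 nM final) for 90 min at 37 deg C. Luminescence was read 1 h after detection reagent, with 57 uM dopamine as the EC100 control.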
# PINK1 modulator – modulators of PINK1 expression | PINK1 immunofluorescence, high-content cytometry, 24 h | Potency, µM (titrated, usually from 76.6 µM), for the others: at the highest dose activation (PINK1 increase), most hits filed as activators | 410,000 compounds, 0.2% hits | AID 624263; active = well fitted activation curve with a large enough effect; inconclusive = small, poorly fitted or top-dose-only effect; inactive = flat fitted curve, though single readings scatter; cell line not stated here;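 further: potency means the concentration at half of the fitted maximal effect; % of control where 0% means no effect; nearly all actives have a fitted effect of over 65% in size; a mitochondrial uncoupler was the plate control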
#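 PINK1 protein level read as immunofluorescence by microplate cytometer in a fixed, stained stable cell line after 24 h exposure to five compound concentrations, with CCCP as control.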
# Six1-Eya2 inh – inhibitors of human Six1/Eya2 interaction; AID 651725; 360,000 compounds, 0.56% hits; AlphaScreen GST-Six1/His-Eya2 binding, biochemical; hits give low values; control for the full effect not named in the record; activity change, % (test concentration not listed); in the data active = activity change below about -65%; inconclusive = about -30% to -65%; inactive = above about -30%; further: on the % scale 0 is the no-effect control and ±100 the full control effect
#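 Homogeneous AlphaScreen proximity assay pairing GST-Six1 with His-tagged Eya2 (added as 5X mix: 250 nM and 500 nM) in 50 mM Tris pH 8.0, 300 mM NaCl, 1 mM TCEP. Glutathione donor and nickel acceptor beads; 1 h, 37 °C, dark.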
# TRPML1 blocker – inhibitors of human TRPML1 channel. TRPML1-inducible cells, Ca2+ dye fluorescence, FDSS; hits give low values; inhibition of EC80 agonist-evoked calcium signal. activity change, negative = inhibition, % (no concentration beside the values). 390,000 compounds, 0.02% hits. AID 624415; in the data active means activity change below about -50%; inconclusive means about -30% to -50%; inactive means above about -30%;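 further: stimulus is agonist 54-4 at its EC80 concentration; on the % scale 0 is the no-effect control and ±100 the full control effect; compound concentration not given in the record; the text of the record puts the active cut at -80%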
#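 Calcium fluorescence in TRPML1-DL cells induced overnight with Tet: a 110 s read after compound pin addition, then a 110 s antagonist read after challenge with 54-4 at 4 uM final (EC80).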
# * marks the source's active call; other numbers are inactive results; ? = inconclusive; . = no result given; & = joins results of further samples; [ ] = remark or other dose.
cpd	molecule	D2 agonist	TRPML1 ag	D2 potentiator	PINK1 modulator	Six1-Eya2 inh	TRPML1 blocker
1	COc1ccc(-c2noc(CNC(=O)Nc3ccc(F)cc3)n2)cc1	-4.9	1.7	-4.2	-0.5%	6.1	33.3
2	CSc1nc(C)cc(OCC(=O)N/N=C/c2ccccc2O)n1	1.9	-0.3	0.6	2.4%	-68.4*	3.1
3	CC1=CC(C)(C)Nc2ccccc21	0.6&-3.6	-1.0&-0.4	-3.9&-11.2	0.2%	-0.1&7.2	1.8&6.0
4	CC1CCc2c(sc3nc4n(c(=O)c23)CCS4)C1 (stereo not given)	-1.1	1.2	-0.4	-1.6%	-1.3	2.7
5	Cc1cccc2sc(N3CCN(C(=O)c4cccs4)CC3)nc12	-0.2	4.4	7.1	0.3%	5.1	37.5
6	CC(C)CNS(=O)(=O)c1ccc(S(=O)(=O)N2CCN(CCC#N)CC2)cc1	-7.1	0.8	-3.9	1.9%	2.9	-4.8
7	COc1ccc(N(CC(=O)NC2CCCCC2)C(=O)CNC(=O)c2cccs2)cc1	-1.2	0.6	-10.9	0.6%	3.0	-1.3
8	COc1ccc(-n2nc(N)c(C(N)=O)n2)cc1	4.0	0.9	0.5	-0.1%	-0.3	-6.1
9	CCOC(=O)c1sc2ncn(CC(=O)Nc3ccc(OCC)cc3)c(=O)c2c1C	.	0.1	.	1.6%	.	-21.5
10	Cc1nn2c(-c3ccc(F)cc3)ccnc2c1Br	1.7	-1.3	-2.6	1.4%	19.5	13.1
11	CCOCCCN(C(=O)c1snc(C(N)=O)c1N)C(C(=O)NC(C)(C)C)c1ccc(Cl)cc1 (stereo not given)	-5.9	0.5	-6.7	2.7%	-16.6	7.9
12	O=C1NC(=S)N/C1=C/c1ccc2ccccc2c1	2.6	1.1	-0.3	2.4%	0.3	15.4
13	CCOC(=O)C(=Cc1ccc(-n2ccnc2)cc1)C(=O)OCC	-1.7	0.6	-8.2	-3.5%	6.7	9.3
14	COc1ccc2c(ccn2S(=O)(=O)c2ccccc2)c1	1.0	.	?	2.1%	2.4	.
15	COC(=O)/C=C/c1cc(F)ccc1S(=O)(=O)NC(C)(C)C	-1.9	-0.6&-0.2	-11.5	2.0%	1.1	4.5
16	O=C(C=Cc1ccccc1Cl)c1ccccc1	1.1	1.0	-6.1	-1.8%	-5.4	7.1
17	CN(C)/C=N/c1nc2nccc(-c3ccccn3)n2n1	2.6	-0.5	-5.2	0.7%	-4.2	-2.9
18	CCC1CN(C(=O)N2CCC(C(=O)NCc3ccc(C)o3)CC2)c2cc(C)ccc2O1 (stereo not given)	1.9	-1.2&2.6	1.7	-0.7%&1.6%	-7.3	-8.8&-8.5
19	CN(C)C(=O)/C(=C\c1ccc(-c2cccc([N+](=O)[O-])c2)o1)NC(=O)c1ccccc1	-3.5	1.6	-1.8	0.7%	-7.0	-7.3
20	Cc1ccc2cc(CN(C)C(=O)C3CCCO3)c(=O)[nH]c2c1 (stereo not given)	0.8	0.4	-9.0	-2.8%	6.2	11.3
21	Cc1ccc(C(C)(C)C)c(SCC(=O)Nc2nnc(C)s2)c1	1.6	1.0	-4.8	4.8%	4.6	-5.0
22	CC(=O)c1cccc(N2C(=NC(=O)CCc3ccccc3)SC3CS(=O)(=O)CC32)c1 (stereo not given)	-1.7	0.3	-7.0	1.0%	4.2	20.2
23	COC(=O)c1ccc(CSc2nncn2N)cc1	-2.7	-0.1	-6.1	3.2%	13.6	-2.4
24	Nc1c(Cl)cc(-c2csc(N3CCCC3c3nc4cc(Cl)c(Cl)cc4n3CCOCCO)n2)cc1Cl (stereo not given)	-0.1	-0.3	-33.2	5.0%	-4.2	1.0
25	O=C(O)c1ccc(S(=O)(=O)c2ccc3c(c2)C(=O)N(c2ccc(Br)cc2)C3=O)cc1	-0.5	0.1	-9.2	0.0%	-14.0	-3.8
26	CO[C@H]1C=CO[C@@]2(C)Oc3c(C)c(O)c4c(O)c(c(C=NN5CCN(C)CC5)c(O)c4c3C2=O)NC(=O)C(C)=CC=C[C@H](C)[C@H](O)[C@@H](C)[C@@H](O)[C@@H](C)[C@H](OC(C)=O)[C@@H]1C	-6.0	-0.5	-11.6	1.1%	-23.6	-9.5
27	Cc1cc(=O)[nH]c(N/N=C/c2c(F)c(F)c(F)c(F)c2F)n1	1.0	-0.4	-5.1	1.2%	-2.3	-3.8
28	CC(=O)NC(c1ccc(F)c(F)c1)c1nc(-c2cnn(C)c2)cs1 (stereo not given)	-1.1	-0.2	-0.2	0.6%	2.5	.
29	Cc1oc(/N=C/c2ccc(O)cc2O)c(C#N)c1C	-3.8	5.6	5.4	-1.0%	-1.4	9.7
30	Cc1cccc(C(=O)Nc2ccc(C(=O)OCc3cc(=O)n4c(C)csc4n3)cc2)c1	.	1.7	.	-0.2%	.	12.7
31	CCOc1ccc2[nH]c3c(N4CCN(c5ccccn5)CC4)ncnc3c2c1	0.0	2.8	3.1	5.0%[38.3 µM]	?	-3.8
32	O=C1CN2C(=N1)N(Cc1ccccc1)c1ccccc12	0.2	0.6	5.8	1.0%	8.1	-12.2
33	Cc1ccc(C(=O)/C=C/c2ccc3ncccc3c2)cc1	-3.3	0.3	-2.2	-0.4%	-1.1	10.3
34	CCOc1ccccc1C(=O)NCc1ccc2c(c1)CCN2C(=O)c1ccccc1	.	-0.1	.	-0.2%	.	-5.4
35	COc1ccc(C(=O)N/N=C(\C)CC(=O)Nc2ccc(Cl)cn2)cc1	-4.3	0.8	-9.1	-0.2%	0.4	5.2
36	Cc1ccc(S(=O)(=O)NCCC(=O)NCC(c2cccs2)N(C)C)cc1C (stereo not given)	-1.8	0.3	1.6	1.5%	-1.3	6.5
37	CC(C)CS(=O)(=O)C1=NN2C(=N)/C(=C\c3ccc(OC(=O)c4ccco4)cc3)C(=O)N=C2S1	1.1	0.2	20.8	0.9%	4.0	-6.9
38	Cc1ccc(CNC(=O)CCCCCn2c(=O)c3sccc3n(CC(=O)Nc3c(C)cc(C)cc3C)c2=O)cc1	.	2.3	.	0.1%	.	1.3
39	CCOC(=O)Nc1ccc2c(c1)N(C(=O)CCN1CCN(CCO)CC1)c1ccccc1CC2	-1.1	0.4	-7.9	.	2.0	7.2
40	COc1ccccc1N1C(N)=NC(N)=NC12CCCCC2	0.7	-0.5	-0.9	2.6%	11.1	1.5
41	Cc1sc2ncn(CC(=O)NCc3ccco3)c(=O)c2c1-c1ccc(F)cc1	-3.0	0.2	-0.4	0.1%	-2.0	15.7
42	Cc1nc2ccccc2c(=O)n1/N=C/c1cccs1	2.9	-0.5	-5.4	-1.4%	1.9	0.8
43	CCCCN(CCCC)CCCNC(=O)C12CN(Cc3ccccc3)CC1C(c1cccc([N+](=O)[O-])c1)=NO2 (stereo not given)	-1.6	1.0	-20.4	6.3%	-13.3	30.7
44	CCOC(=O)C1C(=O)NC(N2CCOCC2)=NC1c1ccco1 (stereo not given)	4.5	1.5	7.0	-0.9%	7.9	-3.1
45	N/C(=N\OC(=O)Cc1ccccc1)c1cccc(Br)c1	?	2.1	-6.7	4.4%	88.9	-3.5
46	CN(Cc1cnccn1)C(=O)c1cc(COc2cccc(C(F)(F)F)c2)on1	-0.2	2.4	-23.0	-0.4%	0.0	-16.6
47	CCc1ncc(C)nc1CC	-2.9	.	-5.1	0.5%	7.2	.
48	CSc1ccc(S(=O)(=O)NCCCn2ccnc2)cc1	3.2	0.4	-3.6	-0.3%	-4.6	-17.1
49	Cn1c(SCC(=O)NC2CCCCC2)nnc1-c1ccccc1O	-2.0	-0.4	7.1	1.0%	4.5	4.8
50	C=CCN1C(c2ccc(Br)cc2)=CS/C1=C(/C#N)c1nnc(N2CCOCC2)n1-c1ccccc1	-0.6	2.3	-11.6	-0.8%	-16.5	46.8
51	O=[N+]([O-])c1ccc(C=NN2CCOCC2)s1	-6.0	-1.0	-9.6	-0.2%	-27.6	-5.1
52	COc1ccc(/C=N/N2CCN(c3ccc(Cl)cc3)CC2)cc1	-1.4	0.4	-6.2	1.2%	-8.5	-1.1
53	CCc1sc(C(=O)NC(C)C2CCCO2)cc1Br (stereo not given)	-0.1	0.5	-9.8	1.1%	0.4	32.2
54	COc1ccc(N2CCN(CC(O)COCc3ccccc3)CC2)cc1 (stereo not given)	-5.5	0.5	-26.0	2.2%	0.3	7.9
55	O=C(NC1CCCc2ccccc21)c1ccc(=O)[nH]c1 (stereo not given)	-2.9	1.5	6.6	2.8%	-10.8	8.0
56	CC(=O)c1cccc(NC(=O)C(C)OC(=O)CN2C(=O)NC(C)(C)C2=O)c1 (stereo not given)	-3.1	0.2	-2.0	-0.9%	6.9	-7.8

# Compounds shown so far with an aryl methoxy group:
cpd	molecule	D2 agonist	TRPML1 ag	D2 potentiator	PINK1 modulator	Six1-Eya2 inh	TRPML1 blocker
1	COc1ccc(-c2noc(CNC(=O)Nc3ccc(F)cc3)n2)cc1	-4.9	1.7	-4.2	-0.5%	6.1	33.3
7	COc1ccc(N(CC(=O)NC2CCCCC2)C(=O)CNC(=O)c2cccs2)cc1	-1.2	0.6	-10.9	0.6%	3.0	-1.3
8	COc1ccc(-n2nc(N)c(C(N)=O)n2)cc1	4.0	0.9	0.5	-0.1%	-0.3	-6.1
14	COc1ccc2c(ccn2S(=O)(=O)c2ccccc2)c1	1.0	.	?	2.1%	2.4	.
35	COc1ccc(C(=O)N/N=C(\C)CC(=O)Nc2ccc(Cl)cn2)cc1	-4.3	0.8	-9.1	-0.2%	0.4	5.2
40	COc1ccccc1N1C(N)=NC(N)=NC12CCCCC2	0.7	-0.5	-0.9	2.6%	11.1	1.5
52	COc1ccc(/C=N/N2CCN(c3ccc(Cl)cc3)CC2)cc1	-1.4	0.4	-6.2	1.2%	-8.5	-1.1
54	COc1ccc(N2CCN(CC(O)COCc3ccccc3)CC2)cc1 (stereo not given)	-5.5	0.5	-26.0	2.2%	0.3	7.9
